NPYLR7 agonist: activates Aedes aegypti NPYLR7 receptor; HEK293T NPYLR7/Galpha15, GCaMP6s calcium fluorescence; activation, % at 10 µM; hit rate 0.15% among 270,000; AID 1259423; in the data active = activation above about 40%;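 note: 0% = vehicle and 100% = reference agonist at the receptor; some compounds past the cut are filed as inactive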
NPYLR7 agonist max-min: recorded beside NPYLR7 agonist, whose call it bears; activation, %; measured here: Max-Min RFU normalised activation; some inactives read as strong as hits;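 span of the calcium signal over five minutes; 0% = vehicle and 100% = native peptide agonist; compound fluorescence can raise it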
* marks the source's active call; other numbers are inactive results; & = joins results of further samples. Not all compounds are listed, so the mix of outcomes need not match the whole.

SMILES	NPYLR7 agonist	NPYLR7 agonist max-min
CCCc1nc(C(=O)N2CCOC(c3ccc(Cl)cc3)C2)cs1 (centres undefined)	3	-1
COc1ccc(OC)c(C2CC(c3ccccc3Cl)=NN2C(=O)CN2CCOCC2)c1 (centres undefined)	-9	0
O=C(CCC1CCN(C(=O)C2=CCCC2)CC1)NC1CCN(Cc2ccccc2)C1 (centres undefined)	7	5
C=CCN(Cc1csc(COc2ccccc2C(C)C)n1)C(=O)Nc1ccc(C)cc1	0	0
COc1ccc(OCc2cc(C(=O)N[C@H]3CCCCNC3=O)no2)c2ccccc12	-3	-4
Cc1cc(NC(C)C2CC3CCC2C3)n2ncnc2n1 (centres undefined)	6	0
C#CCCNC(=O)NC1CCCN(CCOC)C1 (centres undefined)	5	15
CCCOC(=O)C(C)N1CCCC1c1ncc(-c2ccccc2F)[nH]1 (centres undefined)	2	1
O=S(=O)(c1ccc2ccccc2c1)N1CCOCC1	6	5
CCCCNc1cc(=O)n(-c2ccc(F)cc2)nc1C(=O)OCC	0	-2
O=C(NCC1CCCO1)C1CCN(C2CCN(C(=O)Cc3cccnc3)CC2)CC1 (centres undefined)	-2	-3
O=C(NNC(=O)[C@@H]1CCCC[C@@H]1C(=O)O)Nc1ccccc1	0	-2
S=c1[nH]nc(-c2sc3ccccc3c2Cl)o1	0&-2	1&-5
O=C1c2cccc3cccc(c23)C(=O)N1CCCN1CCOCC1	1	-2
c1ccc(-c2ncn(Cc3ccccn3)c2-c2cccn2-c2ccccn2)cc1	1	4
Cc1ccc(-n2nc(C(C)(C)C)cc2NC(=O)CN(Cc2ccco2)C(=O)Nc2ccccc2C(F)(F)F)c(C)c1	2	3
O=C(c1ccc(Oc2ccccc2)o1)N1CC[C@H](CO)[C@H](O)C1	-2	-3
CNC(=O)[C@@H]1C[C@H](N)CN1C(=O)c1cc2ccccc2cn1	8	5
O=C(NCC1CCCO1)C1CCCN(c2nc3ccccc3s2)C1 (centres undefined)	1	-3
O=C(Nc1c(-c2ccc(C(F)(F)F)cc2)nc2ccccn12)C1CCCC1	-6	-1
CCC(N)c1cc(Cl)ccc1Cl (centres undefined)	0	-1
CCOC(=O)c1c(NC(=O)COc2ccc(Cl)cc2)sc2c1CCCC2	6	3
Cc1cccc(Cn2c(NCCCN3CCOCC3)nc3c2c(=O)[nH]c(=O)n3C)c1	2	8
CN1CCN(C(CN)c2ccc3c(c2)CCCN3C)CC1 (centres undefined)	5	2
COc1cccc(-c2nn(-c3cccc(C)c3C)c(OC(C)=O)c2-c2ccc(NC(=O)C(C)C)cc2)c1	-10	-9
O=C(Nc1noc2ncccc12)c1ccc(C(F)(F)F)cc1	6	4
CCCCc1nc(Cl)c(CN2CCn3cncc3C2)[nH]1	7	6
CC1C2=C(CC(C)(C)CC2=O)OC2=C1C(=O)CC(C)(C)C2	2	1
CCc1[nH]c2c(CNC(=O)Cc3c[nH]c(=O)n(C)c3=O)cc(F)cc2c1C	1	-2
O=C(Nc1nc(-c2ccc(I)cc2)cs1)c1cc2ccccc2oc1=O	-3	-6

At a glance, part of the list above:
SMILES	NPYLR7 agonist	NPYLR7 agonist max-min
Cc1cccc(Cn2c(NCCCN3CCOCC3)nc3c2c(=O)[nH]c(=O)n3C)c1	2	8
CN1CCN(C(CN)c2ccc3c(c2)CCCN3C)CC1 (centres undefined)	5	2
COc1cccc(-c2nn(-c3cccc(C)c3C)c(OC(C)=O)c2-c2ccc(NC(=O)C(C)C)cc2)c1	-10	-9
O=C(Nc1noc2ncccc12)c1ccc(C(F)(F)F)cc1	6	4
CCCCc1nc(Cl)c(CN2CCn3cncc3C2)[nH]1	7	6

The list goes on:
SMILES	NPYLR7 agonist	NPYLR7 agonist max-min
CCOC(=O)c1c(NC(=O)c2ccc(C)cc2)sc(C(=O)Nc2cccc(OC)c2)c1C	4	7
COc1ccc(-c2nnc3ccc(OCCNC(=O)c4ccc(C)c(C)c4)nn23)cc1	-7	-10
Cc1nonc1CN(C)Cc1nc(-c2cccc(C(F)(F)F)c2)oc1C	4&5	9&3
CO[C@H]1[C@H](NC(=O)c2cccc(F)c2)c2ccccc2C12CCN(C(=O)c1cc(C)oc1C)CC2	3	2
Fc1ccc(-c2ccc3nnc(SCc4ccccc4)n3n2)cc1	-11	-6
Cn1c(=O)c2c(ncn2CC(=O)NC(=O)NC(C)(C)C)n(C)c1=O	3	6
C#CCN1C(=O)CSc2nnc(COc3cccc(OC)c3)n21	6	5
Cc1c(C(C)N)cnn1-c1ccc(Cl)cc1 (centres undefined)	-3	-4
CCN(CC)c1onc(-c2ccccc2)c1CN(CC1CCCO1)C(=O)c1ccc2c(c1)OCO2 (centres undefined)	-6	0
CCOC(=O)C1=C(O)/C(=C/c2ccc(C)o2)SC1=NC(=O)c1ccc(C(C)(C)C)cc1	4	4
O=C(c1ccc(N2CCCCC2=O)cc1)N1CCN(S(=O)(=O)c2ccc(Cl)c(Cl)c2)CC1	-1	-5
COc1cc(=O)n(-c2ccc(C)cc2)nc1C(=O)Nc1nc2ccc(C)cc2s1	14	7
COCCn1c(SCc2cccc(Cl)c2)nc2c([nH]c3ccccc32)c1=O	-3	-3
O=C(N/N=C\c1cccnc1)c1cc(-c2ccc3ccccc3c2)n[nH]1	6	11
Clc1ccc(-c2nc3ccccn3c2NC2CCCCC2)cc1	17	22

Complete entries, looked up by structure. Values in the order: NPYLR7 agonist	NPYLR7 agonist max-min
Profile of Cc1nonc1CN(C)Cc1nc(-c2cccc(C(F)(F)F)c2)oc1C → 4&5	9&3
Profile of CCOC(=O)c1c(NC(=O)c2ccc(C)cc2)sc(C(=O)Nc2cccc(OC)c2)c1C → 4	7
Profile of Clc1ccc(-c2nc3ccccn3c2NC2CCCCC2)cc1 → 17	22
Profile of Fc1ccc(-c2ccc3nnc(SCc4ccccc4)n3n2)cc1 → -11	-6
Profile of Cn1c(=O)c2c(ncn2CC(=O)NC(=O)NC(C)(C)C)n(C)c1=O → 3	6

(continued)
SMILES	NPYLR7 agonist	NPYLR7 agonist max-min
O=C(O)CNC(=O)c1cn(-c2ccccc2)nc1-c1cccc(Cl)c1	7	5
CCOC(=O)c1nn(-c2ccc(C)cc2)c(=O)cc1OCC(=O)Nc1ccc(CC)cc1	11	8
CCOC(=O)C1=C(C)N(CC)C(=O)NC1c1ccccc1[N+](=O)[O-] (centres undefined)	5	3
CCCc1ccc(S(=O)(=O)N(C)C2CCC3(CC2)OCC(C)(C)CO3)cc1	-5	-7
Cc1noc(-c2ccccc2Cl)c1C(=O)N[C@@H]1CCCc2ccccc21	2	5
CCCCn1c(=O)c2oc3ccccc3c2n(Cc2ccc(C)cc2)c1=O	3	9
COCCn1c(S(=O)Cc2ccc3c(c2)CCC3)nc(C)c1C (centres undefined)	1	2
CC(Nc1ccc(Cl)cc1C#N)c1cccc(S(N)(=O)=O)c1 (centres undefined)	-8	-12
O=C1NC(=S)SC1=Cc1ccc(F)cc1	2	-2
Cn1cc(Cl)c(CN2CCC(n3cc(C4CCCC4)nn3)CC2)n1	7	7
CCOC(=O)c1ccc(N=c2oc3ccc(OC)cc3cc2C(N)=O)cc1	-6	-11
CCOC(=O)C1CCCN(C(=O)c2nn(-c3ccc(C)c(Cl)c3)c(=O)n(Cc3ccccc3Cl)c2=O)C1 (centres undefined)	-2	5
CN(Cc1ncc[nH]1)C(=O)c1cccc2nccnc12	-4	-5
Cn1cnc(S(=O)(=O)Nc2cc(S(=O)(=O)NC(C)(C)C)c(F)cc2F)c1Cl	-10	-12
COCCOCC(=O)N1CCc2c(sc3[nH]c(=O)n(-c4ccccc4C(F)(F)F)c(=O)c23)C1	16	8
CC(C)c1nn(CC(=O)N(C)c2ccccc2)c(=O)c2c1cnn2-c1ccc(F)cc1	6	5
Cn1c(NC(=O)c2ccc(Br)cc2)cc(=O)n(C)c1=O	9	11
COCCCn1c(SCc2cccc(I)c2)nnc1-c1cc(-c2ccccc2)nc2ccccc12	0	8
CCC(C)C(=O)N1CCCC(C(=O)N2CCS(=O)C(C)C2C)C1 (centres undefined)	-9	-10
Cc1ccccc1OCC(=O)Nn1cnc2c(cnn2C(C)(C)C)c1=O	12	9
CC(CC(=O)NCCC(=O)NC(N)=O)c1cccc(F)c1 (centres undefined)	7	4
Cn1cc(S(=O)(=O)Oc2ccc(F)cc2)c(=O)n(C)c1=O	0	-2
Cc1ccccc1-c1nn(-c2ccccc2)cc1C(=O)N1CCCCC1C(N)=O (centres undefined)	0	1
Cc1nc2sc(C)c(C)n2c(=O)c1NC(=O)c1ccccn1	30	23
COc1ccc(CN(C)C(=O)[C@@H]2C[C@H](N)CN2C)c2ccccc12	-1	11
Cc1ccc2[nH]nc(C(=O)NCCS(=O)(=O)N(C)C)c2c1	-2	9
CC(=O)Nc1ccc(S(=O)(=O)CCCN2C(=O)CC(C)(C(C)C)C2=O)cc1 (centres undefined)	4	1
COC(=O)C(=O)N1CCN(c2nccc(-c3ccc4c(c3)OCO4)n2)CC1	-6	-7
CCC(=O)Nc1ccc(SCc2cccc(F)c2)nn1	-9	-14
CC(C)Nc1c(N)c(=O)oc2ccccc12	7	5
CCOc1ccc2c(c1)S/C(=C\c1ccc(Cl)cc1)C(=O)N2	-1	-3
CCOC(=O)C1CCCN(C(=O)c2ccc(CSc3nc(CC)cc(N4CCCCC4C)n3)o2)C1 (centres undefined)	4	1
Cc1nc2ccccn2c(=O)c1NC(=O)Nc1cc(Cl)cc(Cl)c1	-4	-5
FC(F)(F)c1ccc(N2CCN(c3ccc(Cl)nn3)CC2)nc1	3	-2
COCCNC(=O)c1ccc(CSc2nc(COC)cc(N3CCCC3)n2)cc1	22	18
CC(c1ccc(-n2cncn2)cc1)N(C)C(C)c1nc2ccccc2c(=O)[nH]1 (centres undefined)	7	5
CCCn1c(NC(=O)C2CCOCC2)nc2ccccc21	1	-1
Cc1ccc(-n2c(C)cc(C(=O)NC(C)c3ccco3)c2C)cc1 (centres undefined)	12	10
O=c1nc(SCc2cccnc2)c2c(n1CCO)CCC2	-3	-14
O=C(Cn1ccc(=O)[nH]c1=O)OCc1ccccc1C(F)(F)F	5	4
CCC(C)CCCNc1n[nH]c(=S)s1 (centres undefined)	3	1
COc1cccc(OC)c1CNC(=O)c1cc(NC(C)=O)ccc1Cl	-2	-5
COc1ccc(C(=O)N2C(C(=O)N3CCCC3)COC23CCN(C(=O)c2ccc(F)cc2)CC3)cc1 (centres undefined)	7	18
CC(C)(C)c1ccc(-c2ccnc(N3CCN(C(=O)c4cncc(Br)c4)CC3)n2)cc1	31	21
Cn1cc(C#N)cc1C(=O)OCCN1CCSCC1	4	0
Cc1ccc(N2C(=O)CSC2c2cccc(NS(=O)(=O)c3ccc(C(C)(C)C)cc3)c2)c(C)c1 (centres undefined)	14	13
O=C(NC1CC(=O)N(CCc2ccccc2)C1)C1CCCC1 (centres undefined)	2	-1
CCn1c(CC2CCN(S(=O)(=O)c3cccc(C)c3)CC2)nn(C)c1=O	13	11
CCOC(=O)C1=C(C)N=c2s/c(=C\c3ccccc3OC)c(=O)n2C1c1ccc(OC)c(OC)c1 (centres undefined)	1	-6
O=C(Nc1ccc(N2CCC(Cc3ccccc3)CC2)c(C(=O)NCc2ccc(F)cc2)c1)c1cc(C(F)(F)F)cc(C(F)(F)F)c1	-9	-1
CCCCC1=NN2C(=N)/C(=C/c3ccc(F)cc3)C(=O)N=C2S1	-1	-1
Cc1cc(C)c(C(N)=O)c(N2CCC3CCCCC3C2)n1 (centres undefined)	10	8
CCCc1cc(=O)n(CC(=O)Nc2nc3ccc(C)cc3s2)cn1	2	0
COc1ccc(-c2cc(CNC(=O)C3CCCC3)no2)cc1OC	2	1
CCOC(=O)CCC(=O)Nc1ccc(C2SCC(=O)N2c2cccc(CC)c2)cc1 (centres undefined)	7	17
COc1ccc(-n2[nH]c(C(C)C)c(C3=C(N4CCN(C)CC4)C(=O)N(Cc4ccccc4)C3=O)c2=O)cc1	8&3	4&8
Cc1ccccc1-n1c(O)c(C=Nc2ccc(F)cc2)c(=O)[nH]c1=O	2	2
O=C(O)CCN1C(=O)CCC1=O	6	3
COc1c(C)cc(S(=O)(=O)NCC(c2ccsc2)N2CCOCC2)cc1C (centres undefined)	4	-9
CC(C)Cn1cncc1CNC1CCC2(CCNCC2)CC1	1	0

Continuation:
SMILES	NPYLR7 agonist	NPYLR7 agonist max-min
COCCCNC(=O)c1c(-c2ccccc2Cl)noc1C	2	3
CC1(C(=O)Nc2ccc3c(c2)OCCO3)CCN1C(=O)C/C=C/c1ccccc1 (centres undefined)	3	3
Nc1nc(SCC(=O)Nc2ccc(F)cc2)[nH]c(=O)c1NC(=O)c1ccc(F)c(F)c1	4	5
CCCCNC(=O)C1CC=CCC1c1n[nH]c(Cc2ccccc2)n1 (centres undefined)	3	-4
O=C(Nc1nc(-c2ccccc2)cs1)C(=O)N1CCCC(O)C1 (centres undefined)	-5	1
Cc1ccsc1C(=O)N1CCC(CCC(=O)N2CCC(Cc3ccccc3)CC2)CC1	-6	-13
CCNc1ncc(C(=O)N2C[C@@H]3C4CCC(CC4)[C@@H]3C2)cn1	5	-4
O=C(O)c1ccc(CSc2nnc(-c3ccncc3)n2-c2cccc(C(F)(F)F)c2)cc1	-4	-9
Cc1cc(NC(=O)c2sc3nc4c(cc3c2N)N2CCC4CC2)no1	32	25
O=c1ccc(-c2ccc(F)cc2)nn1CCNS(=O)(=O)c1cccnc1	0	-1
CCn1c(SCc2ccc(C(=O)NCc3ccc(F)cc3)cc2)nnc1-c1cccs1	13	10
CCOc1cc(C(=O)NC2CCCCC2C)ccc1OC (centres undefined)	1	0
CCc1nnnn1Cc1nccn1CC(F)(F)F	-1	-3
CCS(=O)(=O)N1CCOC(Cc2cccc(F)c2)C1 (centres undefined)	16	3

Given with two lines to a compound: 2 of the compounds above
Results follow in this order: NPYLR7 agonist | NPYLR7 agonist max-min
CC1(C(=O)Nc2ccc3c(c2)OCCO3)CCN1C(=O)C/C=C/c1ccccc1 (centres undefined)
→ 3 | 3
Nc1nc(SCC(=O)Nc2ccc(F)cc2)[nH]c(=O)c1NC(=O)c1ccc(F)c(F)c1
→ 4 | 5
